Screening data deposited in PubChem by National Center for Advancing Translational Sciences (NCATS).
MARV entry inh: Marburg virus entry inhibition; Marburg virus pseudotyped entry inhibition, cell reporter; control for the full effect not named in the record; about a third of the inactives were read at about 46 µM; 300,000 compounds, 1.8% hits; AID 540276; Potency, µM (titrated, usually from 37.8 µM), for inactives: top-dose activity change, negative = inhibition, most hits filed as inhibitors; active = well fitted inhibition curve with a large enough effect; inconclusive = small, poorly fitted or top-dose-only effect, or effect the other way; inactive = flat fitted curve, though single readings scatter; tested in HEK293 cells; about a fifth of its hits are not listed in these tables; note: % is set by controls: 0 for no effect and ±100 for the full control effect; luciferase read-out
LASV entry inh: blocks Lassa virus binding to or entry into cells; 300,000 compounds, 1.2% hits; Potency, µM (doses to about 37.9 µM), without a hit: top-dose activity change, negative = inhibition, most hits filed as inhibitors; Lassa virus pseudotype entry inhibition, cell reporter; control for the full effect not named in the record; AID 540256; active means well fitted inhibition curve with a large enough effect; inconclusive means small, poorly fitted or top-dose-only effect, or effect the other way; inactive means flat fitted curve, though single readings scatter; tested in HEK293 cells; note: % is set by controls: 0 for no effect and ±100 for the full control effect; nearly all actives have a fitted effect of over 50% in size; luciferase read-out
StopGo reporter: lowers the luciferase signal of an FMDV 2A StopGo reporter; AID 1159524; 410,000 compounds, 1.2% hits; Potency, µM (top dose mostly 57.9 µM), for the others: at the top dose signal change, negative = less light; human cells with a luciferase reporter of 2A StopGo recoding; control for the full effect not named in the record; active = well fitted falling curve with a large enough effect; inconclusive = small, poorly fitted or top-dose-only effect; inactive = no such curve, though single readings can be large or run the other way; tested in HEK293T cells; note: % is set by controls: 0 for no effect and ±100 for the full control effect; nearly all actives have a fitted effect of over 45% in size; luciferase light after 4 h
RE007 growth inh: less growth of the S. pombe RE007 Vpr strain; S. pombe RE007 Vpr strain, BacTiter-Glo ATP luminescence, 24 h; control for the full effect not named in the record; AID 651644; 360,000 compounds, 0.21% hits; Potency, µM (top dose mostly 92.2 µM), for inactives: at the top dose activity change, negative = less growth; active = well fitted falling curve with a large enough effect; inconclusive = small, poorly fitted or top-dose-only effect; inactive = no such curve, though single readings can be large or run the other way;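 note: % is set by controls: 0 for no effect and ±100 for the full control effect; nearly all actives have a fitted effect of over 50% in size; the assay follows cell death caused by Vpr and the record does not say whether a fall means rescue or toxicity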
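Fission yeast RE007 carrying one integrated HIV-1 vpr copy, seeded at OD 0.01 in PMG+AL medium with 23 nL pinned compound. Grown 24 h at 30 degrees; viability read by BacTiter-Glo luminescence after 5 min.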
SARS PLP yeast: blocks SARS-CoV papain-like protease in a yeast assay; S. cerevisiae expressing SARS-CoV PLpro, growth rescue; control for the full effect not named in the record; Potency, µM (doses to about 32.9 µM), inactives show top-dose activity, positive = growth rescue; 330,000 compounds, 0.19% hits; AID 485353; note: 0% is about no effect; nearly all actives have a fitted effect of over 55% in size; growth read by luminescence after 48 h
NS1 function inh: inhibitors of influenza NS1 protein function; S. cerevisiae slowed by influenza A NS1, growth recovery by OD600; Potency, µM (highest dose often 46.1 µM), inactives show at the top dose activity, positive = more growth; 270,000 compounds, 0.4% hits; note: actives are rising curves; nearly all actives have a fitted effect of over 50% in size
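In this qHTS, NS1 from influenza A is expressed in budding yeast, where it slows growth. Cells are switched from glucose to 2% galactose medium (pH 6.0, -URA), treated with compound, and growth recovery is read at OD600.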
Cruzain noTriton: inhibitors of Trypanosoma cruzi cruzain without detergent; P25779; purified cruzain, Z-FR-AMC fluorescence, no detergent; Potency, µM, for inactives: max response, negative = inhibition, hits mostly inhibitors; 200,000 compounds, 2.3% hits; AID 1476; active = well fitted curve in the direction sought with a large enough effect; inconclusive = small, poorly fitted or top-dose-only effect, or another doubt; inactive = no such curve, though single readings can be large; an effect the other way counts as inactive or inconclusive;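 note: plate controls were enzyme without inhibitor for no effect and buffer without enzyme for full effect; nearly all actives have a fitted effect of over 40% in size; top concentration of the series not given in the record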
Target sequence (P25779 123-467 limits assumed): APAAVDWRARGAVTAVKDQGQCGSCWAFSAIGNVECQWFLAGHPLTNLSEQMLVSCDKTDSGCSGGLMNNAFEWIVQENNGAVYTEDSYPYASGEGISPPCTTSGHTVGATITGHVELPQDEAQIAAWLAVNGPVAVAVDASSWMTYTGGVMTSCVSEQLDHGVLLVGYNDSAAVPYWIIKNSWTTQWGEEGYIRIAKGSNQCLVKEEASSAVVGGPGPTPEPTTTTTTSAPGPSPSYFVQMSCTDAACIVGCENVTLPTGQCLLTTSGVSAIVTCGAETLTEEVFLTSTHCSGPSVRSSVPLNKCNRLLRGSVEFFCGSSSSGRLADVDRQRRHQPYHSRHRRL
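Detergent-free condition (0.00005% Triton X-100) in acetate buffer pH 5.5 with DTT. 1.5 nM enzyme and compound were pre-mixed 15 min, then 2 uM Z-FR-AMC substrate added; reaction progress from fluorescence change between first and third reads (60 s).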
Cruzain Triton: cruzain (T. cruzi) inhibition with detergent. purified cruzain, Z-FR-AMC fluorescence, 0.01% Triton. Potency, µM, for the others: max response, negative = inhibition, actives largely listed as inhibitors. AID 1478. 200,000 compounds, 0.43% hits; active = well fitted curve in the direction sought with a large enough effect; inconclusive = small, poorly fitted or top-dose-only effect, or another doubt; inactive = no such curve, though single readings can be large; an effect the other way counts as inactive or inconclusive;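 note: plate controls were neutral wells for no effect and buffer without enzyme for full effect; nearly all actives have a fitted effect of over 40% in size; top concentration of the series not given in the record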
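Purified cruzain (1.5 nM final) was preincubated with compounds for 15 min at room temperature in 100 mM sodium acetate pH 5.5, 5 mM DTT, 0.01% Triton X-100. Reaction started with 2 uM Z-FR-AMC; AMC fluorescence change over 60 s gave activity.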
* hit, by the source's call; ? = inconclusive; · = not tested or not shown; & = joins results of further samples; [ ] = another dose, or the depositor's remark. Unless noted, calls come from the whole dose curve; as a rule, active means well fitted rising curve with a large enough effect; inconclusive means small, poorly fitted or top-dose-only effect; inactive means no such curve, though single readings can be large or run the other way. Potency is the fitted concentration of half-maximal effect. Random draw from the library, and some 4.7% of all compounds hit somewhere here.

SMILES	MARV entry inh	LASV entry inh	StopGo reporter	RE007 growth inh	SARS PLP yeast	NS1 function inh	Cruzain noTriton	Cruzain Triton
Cn1c(N)c(C(=O)COC(=O)CCC(=O)c2ccc(F)cc2)c(=O)n(C)c1=O	24%[46.1 µM]	8%[46.1 µM]	-10%	?	-1%	·	·	·
CC(=O)Nc1ccc(NC(=O)c2oc3c(c2C)-c2nn(Cc4ccccc4Cl)cc2CC3)cc1	·	20%[46.1 µM]	-29%	·	·	·	-2%	-0.7%
O=C(NNc1c2ccccc2nc2ccccc12)c1cc2ccccc2cc1O	3.2µM*	?	0%	-5%	-43%	13%	7.9µM*	-6.1%
COC(=O)Nc1ccc(=O)n(Cc2c(Cl)cccc2Cl)c1	7%	-15%	9%	8%	-7%	-8%	-5%	0.7%
COc1ccccc1N(CC(O)CN1C(=O)NC(C)(C)C1=O)S(=O)(=O)c1ccc(C)cc1 (stereo unspecified)	6%	16%	-18%	3%	3%	-7%	5%	1.9%
Cc1nc2cccnc2n1-c1cccc(C(=O)NCCc2ccc(Cl)cc2)c1	·	-8%[46.1 µM]	?	·	·	·	-2%	-3.6%
Cn1c(=O)c(C(=O)NCC2CCCO2)c(O)c2ccccc21 (stereo unspecified)	?	?	15%	-21%	-1%	-43%	·	·
Cc1cc(=O)n2c(n1)NC(Nc1cccc(C)c1C)=NC2c1ccccc1 (stereo unspecified)	·	·	-13%	-7%	0%	-1%	·	·
CCC(C)NC(=O)C1CCCN(c2nc(C)cc(OC)n2)C1 (stereo unspecified)	-6%	0%	-13%	-1%	-5%	-4%	-6%	0.7%
COc1ccc(N2CCCn3c2nc2c3c(=O)n(Cc3ccc(F)cc3)c(=O)n2C)c(OC)c1	1%	-5%	-23%	11%	-2%	?	?	-2.3%
Cc1ccc(Cn2ccn(CC(=O)Nc3c(C)cc(C)cc3C)c(=O)c2=O)cc1	·	19%[46.1 µM]	-10%	·	·	·	-10%	0.0%
Cc1cc2nccc(-c3ccc(F)cc3)n2n1	·	·	-6%	-1%	1%	-2%	·	·
COc1cc(/C=N/NC(=O)c2ccc3c(c2)OCCO3)cc(Br)c1O	·	·	26%	1%	0%	1%	·	·
Cc1nn(C)c(Cl)c1CN1CCN(C2CCCCC2)C(CCO)C1 (stereo unspecified)	·	·	-14%	8%	1%	1%	·	·
Cc1cnc(NC(=O)C2COc3ccccc3O2)s1 (stereo unspecified)	7.9µM*	?	-64%	-10%	0%	-3%	-3%	-0.6%
Cc1c(NC(=O)CC(C)C)c(=O)n(-c2ccccc2)n1C	-7%	-1%	-1%	2%	0%	-2%	0%	0.8%
CCOc1ccc(C(=O)Nc2nc3ccccc3[nH]2)cc1OCC	11µM*	·	?	-11%	1%	·	·	·
CC(=O)c1ccc(OCC(=O)N(C2CCCCC2)C2CCS(=O)(=O)C2)cc1 (stereo unspecified)	1%	-2%	-6%	2%	-3%	·	·	·
CCc1c(C)nc2ncnn2c1NCCc1ccc(OC)cc1	?	?	11µM*	12%	-1%	-11%	6%	3.1%
Cc1ccc(/C=N/n2c(-c3ccccn3)n[nH]c2=S)o1	·	·	12%	10%	0%	1%	·	·
COCCNC(=O)CNS(=O)(=O)c1ccc2nc(C)sc2c1	2%	-4%	5%	8%	1%	-3%	-5%	5.9%
Cc1cc(=O)n2[nH]c(COc3ccccc3)nc2n1	1%	5%	0%	-1%	4%	3%	1%	2.0%
O=C(c1cccs1)N1CCN(CCc2ccccc2)CC1	-7%	-4%	9%	2%	-2%	-3%	-9%	3.1%
Cc1ccc(C(=O)NCCc2nnc3ccc(SCC(=O)Nc4ccccc4F)nn23)cc1	-3%	-14%	-10%	7%	-1%	1%	·	·
COc1ccccc1OCCCCn1c(C(C)O)nc2ccccc21 (stereo unspecified)	·	·	?	-21%	2%	-7%	·	·
O=C(c1ccccc1)c1ccccn1	?	2%[46.1 µM]	19%	5%	-1%	·	·	·
O=C(COC(=O)c1ccccc1NC(=O)c1ccco1)NC1CCS(=O)(=O)C1 (stereo unspecified)	-12%[46.1 µM]	2%	5%	-9%	-1%	·	·	·
O=C(CCCCCn1c(SCC(=O)c2ccccc2)nc2ccccc2c1=O)NCc1ccco1	1%&-15%	3%	-17%	3%[3.69 µM]	-20%	8%	-21%	-0.7%
Cc1noc(NS(=O)(=O)c2ccc(NC(=O)c3ccc(OC(C)C)cc3)cc2)c1C	?	-16%	23%	3%	1%	-5%	·	·
COc1ccc(-n2c(=O)c3c4c(sc3n3c(=S)[nH]nc23)COC(C(C)C)C4)cc1 (stereo unspecified)	10%[46.1 µM]	-28%	-18%	0%	0%	9%	·	·
O=C1CCc2cc(NS(=O)(=O)c3ccccc3)cc3c2N1CCC3	-24%[46.1 µM]	?	13%	32%	-5%	·	·	·
COc1nn(-c2ccccc2)c(=O)c(Cl)c1Cl	?	?	14µM*	?	-9%	-29%	·	·
O=C(CCc1nnc(-c2ccc3c(c2)OCO3)o1)N1CCC(c2ccc(F)cc2)C1 (stereo unspecified)	?	5%[46.1 µM]	13%	-26%	-1%	-6%	·	·
O=C(Cc1ccccc1)Nc1sc2c(c1C(=O)Nc1ccc(Br)cc1)CCC2	·	11%[46.1 µM]	-17%	·	·	·	?	-1.5%
COC(=O)CN(c1cccc(OC)c1)S(C)(=O)=O	20%	8%	8%	-10%	14%	-10%	-5%	4.5%
O=C(NC(=S)NCC1CCCO1)c1ccc(Cl)cc1 (stereo unspecified)	?	-2%	49%[activator]	-22%	18%	14%	-4%	-1.8%
COc1ccc(N2CC(C(=O)Nc3ccc(S(=O)(=O)N4CCCCC4)cc3)CC2=O)cc1 (stereo unspecified)	-9%	-25%	-6%	?	2%	10%	·	·
CN(C)S(=O)(=O)Oc1cccc(C(=O)Nc2ccc([N+](=O)[O-])cc2)c1	?	?	-11%	-9%	2%	·	·	·
Cc1ccc(C(=O)Nn2cnc3ccccc3c2=O)cc1C	·	·	52%[activator]	22%	-2%	3%	·	·
CC1CCCCN1CCCn1c(=S)[nH]c2ccccc2c1=O (stereo unspecified)	?	-1%	-14%	8%	0%	9%	-1%	-0.5%
Cc1cc(C)c2nncn2n1	-2%	-4%	-5%	-4%	1%	0%	·	·
CCCCc1nnc(NC(=O)C(=O)OCC)s1	0%[46.1 µM]	16%[46.1 µM]	3%	4%	0%	-3%	·	·
CCOc1ccc(-c2ccc(NS(=O)(=O)c3cc(C)ccc3OC)cc2)nn1	·	1%[46.1 µM]	0%	·	·	·	-7%	-12%
CCOC(=O)C1=C(N)OC2=C(C(=O)CCC2)C1c1sccc1C (stereo unspecified)	18%	7%	-22%	7%	-11%	-3%	-2%	-5.4%
CCOC(=O)c1[nH]cnc1C(=O)Nc1cccc(OC)c1	0%&0%[46.1 µM]	?	-15%&-14%	-3%	0%	5%	-1%	1.2%
NC(=O)c1nc(C2CCCCC2)nc2c1[nH]c(=O)n2-c1ccc(F)cc1	·	·	54%[activator]	-8%	10%	4%	-19%	0.9%
COC(=O)c1cc(NC(=O)Cc2coc3cc(OC)ccc23)cc(C(=O)OC)c1	?	-7%	0%	-8%	2%	-32%	6%	-5.5%
O=C(NC(=S)Nc1ccccc1N1CCCC1)c1ccco1	-11%[14.2 µM]	5%	-9%	-19%	-2%	16%	·	·
CCOc1ccc(/C=N/NC(=O)c2c(C)n(C)c3ccc(OC)cc23)cc1	-20%	?	-12%	?	3%	24%	11%	-7.6%
Clc1cc2c(c(CSc3nc4ccccc4n4cccc34)c1)OCOC2	1%[46.1 µM]	27%[46.1 µM]	42%[activator]	-5%	-2%	2%	·	·
CCCCn1c(O)c(/C=C/C=C/C=Nc2ccccc2)sc1=S	-22%[46.1 µM]	7%	?	-2%	-5%	·	·	·
Cc1cccc(NC(=O)CSc2nc3ccccc3c(=O)n2C)c1	7.1µM*	?	?	10%	-5%	-41%	·	·
CCCCCn1c(=O)[nH]c2cc(C(=O)NCCN(CC)CC)ccc2c1=O	?	?	-14%	-11%	4%	-5%	0%	5.9%
CCOc1ccc(S(=O)(=O)NCCOC)cc1C	8%	11%	0%	-3%	3%	9%	-8%	-1.0%
CC(=O)Nc1ccc(S(=O)(=O)NC2(C(F)(F)F)NC(=O)N(c3ccccc3F)C2=O)cc1 (stereo unspecified)	1%&2%[46.1 µM]	5%&10%[46.1 µM]	-15%&2%	-5%	1%	0%	·	·
CC(=O)Nc1ccc2c(c1)ncn2-c1ccccc1	?	3%	56%[activator]	-11%	2%	3%	·	·
Cc1ccc2nc(CSc3nnc(NC(=O)CC(C)C)s3)cc(=O)n2c1	·	0%[46.1 µM]	-21%	·	·	·	-5%	1.5%
COc1cc2[nH]c(=O)c(C(=O)NCCCN3CCOCC3)c(O)c2cc1OC	29%[46.1 µM]	4%	-15%	-14%	0%	0%	·	·
COc1ccc(-c2nc(-c3cccs3)no2)cc1	?	1.8µM*	7.1µM*	-27%	-2%	-9%	·	·
O=C(COc1ccccc1)Nc1ccc(Cl)cc1C(=O)c1ccccc1	?	-23%	-19%	-8%	13%	-1%	-3%	-6.2%

Following part.
SMILES	MARV entry inh	LASV entry inh	StopGo reporter	RE007 growth inh	SARS PLP yeast	NS1 function inh	Cruzain noTriton	Cruzain Triton
COc1ccc(C(=O)NCC(c2ccco2)N(C)C)cc1S(=O)(=O)NCc1ccc(Cl)cc1 (stereo unspecified)	2%	2%	10%	-7%	5%	·	·	·
CC(=O)c1ccccc1OCc1ccc(S(=O)(=O)Cc2ccccc2)cc1	·	·	?	0%	-5%	-11%	·	·
O=C(C1CCN(S(=O)(=O)c2cccc3cccnc23)CC1)N1CCCC1	·	·	0%	-9%	-7%	-3%	1%	4.3%
CC1CC(C)CN(C(=O)COC(=O)CCC(=O)c2cccs2)C1 (stereo unspecified)	?	27%[46.1 µM]	1%	11%	2%	·	·	·
CCCN(CCC)C(=O)c1nn(C)c2c1CSc1ccccc1-2	5%[46.1 µM]	-4%[46.1 µM]	-12%	·	·	·	3%	1.6%
Cc1cccc(C(=O)N2CCC(n3nnc4cc(F)ccc43)CC2)c1	?	1%	26%	-6%	3%	-14%	-2%	3.4%
